Compound activity (PubChem BioAssay)
MARV entry inh: Marburg virus entry inhibition; Potency, µM (series often up to 37.8 µM), for the others: top-dose activity change, negative = inhibition, actives largely listed as inhibitors; Marburg virus pseudotyped entry inhibition, cell reporter; control for the full effect not named in the record; about a third of the inactives were read at about 46 µM; hit rate 1.8% among 300,000; active = well fitted inhibition curve with a large enough effect; inconclusive = small, poorly fitted or top-dose-only effect, or effect the other way; inactive = flat fitted curve, though single readings scatter; tested in HEK293 cells; about a fifth of its hits are not listed in these tables; further: on the % scale 0 is the no-effect control and ±100 the full control effect; luciferase read-out
2A StopGo: lowers the luciferase signal of an FMDV 2A StopGo reporter. AID 1159524. hit rate 1.2% among 410,000. human cells with a luciferase reporter of 2A StopGo recoding; control for the full effect not named in the record. Potency, µM (top dose mostly 57.9 µM), without a hit: at the highest dose signal change, negative = less light; active = well fitted falling curve with a large enough effect; inconclusive = small, poorly fitted or top-dose-only effect; inactive = no such curve, though single readings can be large or run the other way; tested in HEK293T cells; further: on the % scale 0 is the no-effect control and ±100 the full control effect; nearly all actives have a fitted effect of over 45% in size; luciferase light after 4 h
LASV entry inh: inhibitors of Lassa virus binding or cell entry | Lassa virus pseudotype entry inhibition, cell reporter; control for the full effect not named in the record | Potency, µM (doses to about 37.9 µM), for inactives: at the highest dose activity change, negative = inhibition, most hits filed as inhibitors | hit rate 1.2% among 300,000 | AID 540256; active means well fitted inhibition curve with a large enough effect; inconclusive means small, poorly fitted or top-dose-only effect, or effect the other way; inactive means flat fitted curve, though single readings scatter; tested in HEK293 cells; further: on the % scale 0 is the no-effect control and ±100 the full control effect; nearly all actives have a fitted effect of over 50% in size; luciferase read-out
Cruzain noTriton: blocks cruzain activity in detergent-free assay; Potency, µM, for inactives: max response, negative = inhibition, most hits filed as inhibitors; P25779; purified cruzain, Z-FR-AMC fluorescence, no detergent; hit rate 2.3% among 200,000;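 further: plate controls were enzyme without inhibitor for no effect and buffer without enzyme for full effect; nearly all actives have a fitted effect of over 40% in size; top concentration of the series not given in the record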
Target sequence (P25779 123-467 limits assumed): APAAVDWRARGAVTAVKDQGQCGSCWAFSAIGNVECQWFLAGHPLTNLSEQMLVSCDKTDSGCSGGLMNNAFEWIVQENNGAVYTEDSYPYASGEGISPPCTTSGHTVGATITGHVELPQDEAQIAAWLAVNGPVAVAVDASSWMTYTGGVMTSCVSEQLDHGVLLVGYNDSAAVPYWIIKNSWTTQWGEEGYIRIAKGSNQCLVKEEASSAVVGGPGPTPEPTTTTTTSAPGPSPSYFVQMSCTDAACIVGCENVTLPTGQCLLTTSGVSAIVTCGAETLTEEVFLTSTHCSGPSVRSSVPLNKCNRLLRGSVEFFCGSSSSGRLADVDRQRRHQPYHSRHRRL
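Purified cruzain at 1.5 nM, pre-incubated 15 min with compound at room temperature in 100 mM sodium acetate pH 5.5, 5 mM DTT, 0.00005% Triton X-100. Reaction started with 2 uM Z-FR-AMC; AMC fluorescence increase over 60 s gives rate.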
Cruzain inh Det: blocks cruzain activity in presence of Triton detergent; P25779; purified cruzain, Z-FR-AMC fluorescence, 0.01% Triton; Potency, µM, without a hit: max response, negative = inhibition, actives largely listed as inhibitors; hit rate 0.43% among 200,000; AID 1478;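 further: plate controls were neutral wells for no effect and buffer without enzyme for full effect; nearly all actives have a fitted effect of over 40% in size; top concentration of the series not given in the record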
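Compounds were screened in titration against cruzain (1.5 nM) with 0.01% Triton X-100 to counter colloidal aggregation. Activity was the AMC fluorescence increase over 60 s after adding 2 uM Z-FR-AMC at pH 5.5.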
NS1 inh: inhibitors of influenza NS1 protein function; Potency, µM (top dose mostly 46.1 µM), inactives show at the highest dose activity, positive = more growth; S. cerevisiae slowed by influenza A NS1, growth recovery by OD600; hit rate 0.4% among 270,000; active means well fitted rising curve with a large enough effect; inconclusive means small, poorly fitted or top-dose-only effect; inactive means no such curve, though single readings can be large or run the other way; further: nearly all actives have a fitted effect of over 50% in size
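OD600 was taken as the measure of yeast growth restored by compound in an NS1-expressing S. cerevisiae strain. Cells had been washed out of glucose medium and diluted 1:100 into galactose -URA medium, pH 6.0.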
SARS PLpro yeast: blocks SARS-CoV papain-like protease in a yeast assay. S. cerevisiae expressing SARS-CoV PLpro, growth rescue; control for the full effect not named in the record. hit rate 0.19% among 330,000. AID 485353. Potency, µM (top dose mostly 32.9 µM), inactives show at the top dose activity, positive = growth rescue; active means well fitted rising curve with a large enough effect; inconclusive means small, poorly fitted or top-dose-only effect; inactive means no such curve, though single readings can be large or run the other way; further: 0% is about no effect; nearly all actives have a fitted effect of over 55% in size; growth read by luminescence after 48 h
RE007 growth inh: less growth of the S. pombe RE007 Vpr strain; hit rate 0.21% among 360,000; Potency, µM (doses to about 92.2 µM), for inactives: at the top dose activity change, negative = less growth; S. pombe RE007 Vpr strain, BacTiter-Glo ATP luminescence, 24 h; control for the full effect not named in the record; active = well fitted falling curve with a large enough effect; inconclusive = small, poorly fitted or top-dose-only effect; inactive = no such curve, though single readings can be large or run the other way;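 further: on the % scale 0 is the no-effect control and ±100 the full control effect; nearly all actives have a fitted effect of over 50% in size; the assay follows cell death caused by Vpr and the record does not say whether a fall means rescue or toxicity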
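Fission yeast RE007 carrying one integrated HIV-1 vpr copy, seeded at OD 0.01 in PMG+AL medium with 23 nL pinned compound. Grown 24 h at 30 degrees; viability read by BacTiter-Glo luminescence after 5 min.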
The depositor's hits bear a star; ? = inconclusive; · = not tested or not shown; & = joins results of further samples; [ ] = dose if it differs, or a comment. Unless noted, the call rests on the fitted dose curve; in most records, active means well fitted curve in the direction sought with a large enough effect; inconclusive means small, poorly fitted or top-dose-only effect, or another doubt; inactive means no such curve, though single readings can be large; an effect the other way counts as inactive or inconclusive. Potency means the concentration at half of the fitted maximal effect. Outcome played no part in choosing rows, and some 4.6% of all compounds hit somewhere here.

SMILES	MARV entry inh	2A StopGo	LASV entry inh	Cruzain noTriton	Cruzain inh Det	NS1 inh	SARS PLpro yeast	RE007 growth inh
C=CCn1cc(C(=O)NCC2CCCO2)c(=O)c2cc(S(=O)(=O)N3CCCCCC3)ccc21 (stereo not given)	?	-19%	-2%	?	-4.5%	0%	0%	14%
CC(C)Nc1nc(NC(C)C)nc(N(C)n2cnnc2)n1	?	-15%	8%	-12%	0.4%	5%	1%	-8%
O=C(Cn1cnc(S(=O)(=O)N2CCCC2)c1)Nc1cccc(Br)c1	·	-17%&-6%	-10%[46.1 µM]	-8%	-2.8%	-2%	2%	-10%
COC(=O)c1cc2oc3ccccc3c2n1Cc1c(C)cc(C)cc1C	?	-18%	·	-6%	-0.8%	·	·	·
O=C(Nc1ccc(NC(=O)c2cccs2)cn1)c1ccco1	?	-45%	4µM*	6%	-6.7%	-167%	-13%	-1%
O=[n+]1cc(-c2ccc(F)cc2)n([O-])c2c1CCC2	-3%&-3%[46.1 µM]	5%	10%	-3%	-6.2%	-10%	2%	1%
Cc1cc(C)n(/N=C/c2cc([N+](=O)[O-])ccc2O)c(=O)c1	16%[46.1 µM]	6%	-7%[46.1 µM]	·	·	-56%	-5%	?
O=C1C2C3CCC(C3)C2C(=O)N1CNc1ccc(F)cc1 (stereo not given)	21%	-3%	0%	5%	-0.2%	6%	0%	0%
CC(NC(=O)Cn1c(NCCO)nc2ccccc21)C1CC2CCC1C2 (stereo not given)	0%	-14%	3%	·	·	-1%	-1%	-13%
CC1(C)C[C@@H]2C[C@@](C)(CN2C(=O)c2ccccc2)C1	·	-6%	·	·	·	-8%	-2%	0%
CCOc1ccc(CONS(=O)(=O)c2ccc(NC(C)=O)cc2)cc1Cl	11%[46.1 µM]	-25%	?	0%	-11%	-13%	-16%	9%
O=C(O)C1CCCCC1C(=O)Nc1ccccc1Cl (stereo not given)	?	-8%	2%	2%	-2.5%	5%	-12%	12%
C=CC(=O)NCCCc1cc(C(C)(C)C)c(O)c(C(C)(C)C)c1	-25%[46.1 µM]	0%	?	13%	-1.8%	-8%	-21%	9%
O=C(Nc1ccc(NS(=O)(=O)c2ccccc2)c(Cl)c1)c1ccccc1	0%[46.1 µM]	7%	3%[46.1 µM]	·	·	·	·	3%
Cc1ccnc(NS(=O)(=O)c2ccc(NC(=O)c3snnc3C)cc2)n1	2%[46.1 µM]	15%	0%[46.1 µM]	·	·	2%	4%	-1%
N#C/C(=C\c1cc2c(cc1Br)OCO2)C(=O)NCC1CCCO1 (stereo not given)	-15%[46.1 µM]	-20%	?	·	·	-10%	-1%	4%
Cc1c(C#N)c(N)nc2c3c(sc12)NC(=O)CC3c1ccccc1 (stereo not given)	?	-10%	1%	-20%	-5.3%	19%	-1%	0%
COc1cc(CCCN2C(=S)NC[C@@H]2Cc2ccccc2)cc(OC)c1OC	·	-19%	·	·	·	-6%	-1%	-9%
Cc1nc2ccccn2c(=O)c1NC(=O)c1cccs1	?	1%	18%	·	·	·	-3%	1%
O=C(NNC(=O)c1ccc2ccccc2c1O)Nc1ccc(F)cc1	·	-2%	·	·	·	7%	7%	8%
Cc1noc(C)c1C(=O)OCC(=O)c1cc(C)n(Cc2ccccc2Cl)c1C	?	-3%	?	3%	-4.7%	-7%	-5%	16%
CCN(CC)S(=O)(=O)c1ccc(/C=C/C(=O)OCC(=O)Nc2ccc(C(N)=O)cc2)cc1	-17%[46.1 µM]	-19%	-4%	·	·	·	2%	-5%
Cc1ccc(S(=O)(=O)Nc2ccc3ncccc3c2)cc1	-30%	12%	-25%	2%	0.2%	-16%	-4%	9%
Cc1[nH]c2ccc(OCc3ccccc3)cc2c1CCN1C(=O)OC(C)(C)C1(C)O (stereo not given)	3%	-3%	·	-1%	-1.2%	13%	-2%	-6%
CCN(CC)C(=O)c1sc2c(c1C)c(=O)n(CCc1ccccc1)c(=O)n2Cc1cccc(Cl)c1	·	?	6.3µM*	2%	1.0%	·	·	·
CNC(=O)NC(=O)CSc1nnc(C(F)(F)F)n1C	4%	-3%	-1%	-4%	-3.7%	1%	3%	6%
CC(=O)c1ccc(OCc2cc(C(=O)N(C)Cc3nc4c(C)cccc4[nH]3)no2)cc1	19%	-28%	-13%	·	·	-18%	-3%	-5%
COc1ccc2nc(NC(=O)CSc3nnc(-c4ccoc4C)n3C)sc2c1	3%&3%	41%[activator]	-37%	-5%	-1.3%	-13%	7%	8%
CC(=O)N1CCc2cc(S(=O)(=O)CCC(=O)Nc3ccc(Cl)cc3F)ccc21	·	-6%	·	·	·	3%	-12%	2%
Cc1nc(-n2nc(C)c(Cc3ccc(Cl)cc3)c2C)sc1C(=O)N1CCC(C)CC1	10%[46.1 µM]	?	5%[46.1 µM]	-5%	-1.9%	·	·	·
Cc1ccc(OCC(=O)Nc2nnc(SCc3cc(=O)c4ccccc4[nH]3)s2)cc1C	·	-16%	-4%[46.1 µM]	1%	3.4%	·	·	·
Cc1cccc(N2CCN(C(=S)NCc3ccco3)CC2)c1C	0%	-5%	-27%	-6%	-9.0%	-19%	-56%	-9%
C/C(=N/NS(=O)(=O)c1cccc([N+](=O)[O-])c1)c1ccncc1	?	-8%	-5%[46.1 µM]	·	·	-4%	-4%	10%
CCCOc1ccc(-c2nn(-c3ccccc3)cc2/C=C2\SC(N)=NC2=O)cc1C	26%	-12%	-7%	13µM*	-4.7%	0%	-4%	1%
COc1ccc(NC(=O)CSc2nc(C)c3c(c2C#N)CCCC3)cc1	-14%	-17%	-13%	13%	2.8%	-14%	5%	10%
CCN(C(=O)C(C)OC(=O)c1nn(-c2ccccc2C(F)(F)F)cc1O)c1ccccc1 (stereo not given)	6%	-1%	-8%	·	·	·	4%	-21%
COc1ccc(CCNC(=O)NC23CC4CC(CC(C4)C2)C3)cc1	-24%	·	3%	-3%	-5.8%	-13%	-6%	3%
Cc1ccc(C(=O)N2CCCC(c3ccccc3)=N2)cc1	20%[46.1 µM]	9%	-8%	·	·	·	-8%	10%
O=C(O)CCC(=O)NCCc1cccc(Cl)c1	6%[46.1 µM]	36%[activator]	2%[46.1 µM]	·	·	5%	-1%	6%
O=C(CCl)Nc1ccc(S(=O)(=O)Nc2nccs2)cc1	?	-12%	?	·	·	4%	0%	-3%
C=CCn1c(N(C)C)nc2c1c(=O)[nH]c(=O)n2C	·	3%	·	·	·	3%	-1%	7%
O=C(NCCc1ccc(Cl)cc1)c1cc(S(=O)(=O)N2CCCCC2)c[nH]1	·	-7%	·	·	·	16%	6%	9%
COC(=O)CCc1c(C)nn(-c2ccccc2)c1C	5%	32%[activator]	?	-6%	6.4%	-13%	5%	3%
O=C(CSc1nnc(-c2ccncc2)o1)Nc1cc(Cl)ccc1C(=O)O	-8%[46.1 µM]	-6%	2%[46.1 µM]	·	·	·	1%	-1%
c1cc2c3c(cccc3c1)NC1(CCCCC1)N2	0%	·	1%	7.9µM*	0.0%	7%	0%	-12%
COc1ccccc1NC(=O)c1oc2ccccc2c1NC(=O)COc1cccc(C)c1	16%[46.1 µM]	?	21%[46.1 µM]	-1%	-0.4%	·	·	·
COc1ccccc1-n1c(COc2ccccc2-c2ccccc2)nnc1SCC(=O)c1c(N)n(C)c(=O)n(C)c1=O	?	-13%	7%	22%	1.5%	3.5µM*	26%	8%
COC(=O)[C@H](Cc1ccccc1)NC(=O)C1CCN(C(=O)[C@H](C)NS(=O)(=O)c2ccc(C)cc2)CC1	·	8%	·	·	·	-7%	3%	-3%
CCc1[nH]nc2c1C(C(C)C)C(C#N)=C(N)O2 (stereo not given)	1%	32µM*	17%	6%	-3.4%	-5%	7%	1%
CCN1CCN(C2CCCCC2NS(=O)(=O)c2ccccc2)CC1 (stereo not given)	6%[46.1 µM]	-2%	17%[46.1 µM]	·	·	-1%	-2%	-3%

(listing goes on)
SMILES	MARV entry inh	2A StopGo	LASV entry inh	Cruzain noTriton	Cruzain inh Det	NS1 inh	SARS PLpro yeast	RE007 growth inh
O=C(Cn1c(=O)oc2ccccc21)Nc1nnc(N2CCCCCC2)s1	·	-24%	·	-18%	-15%	18%	-1%	2%
CN(C(=O)C1CCCO1)c1nnc(-c2cnccn2)s1 (stereo not given)	-1%	67%[activator]	17%	3%	5.3%	-4%	-14%	43%
CN(C)Cc1c(O)ccc2c(=O)c(-c3ccc(Cl)cc3)coc12	18%	19%	15%	·	·	10%	?	8%
O=C(Nc1ccc(Cl)cc1)NC1CCCC1Cc1ccco1 (stereo not given)	-18%	0%	22%	-26%	-8.6%	-84%	-28%	7%
CCOC(=O)Nc1ccc(S(=O)(=O)Nc2nc(C)cc(C)n2)cc1	?	0%	27%[14.3 µM]	4%	1.6%	-2%	-1%	5%
Cc1cc(CNC(=O)[C@H]2C[C@@H]2[C@H](NP(=O)(c2ccccc2)c2ccccc2)c2ccccc2)nn1C	-10%	0%	-7%	?	-1.9%&-0.3%	-18%	21%	0%
Cc1ccc(NC(=O)Cn2c(=O)n(CCCC(=O)NCc3ccc4c(c3)OCO4)c(=O)c3ccccc32)cc1	-1%[46.1 µM]	-2%	3%[46.1 µM]	-1%	-2.6%	·	·	·
Cc1ccccc1CN(c1ccc(C(=O)N2CCc3ccccc3C2)cc1)S(C)(=O)=O	?	0%	-17%	?	-1.1%	-5%	-5%	-4%
CCOc1ccc(C2/C(=C(/O)c3ccc(F)cc3)C(=O)C(=O)N2CCCN(C)C)cc1 (stereo not given)	3%&6%	-10%	6%	11%	-0.3%	3%	7%	8%
CC(Sc1ccc(S(=O)(=O)N2CCOCC2)cc1[N+](=O)[O-])C(=O)O (stereo not given)	1%	-19%	3%	0%	-5.2%	22%	3%	-7%
CC(C)(C#CC(O)(c1ccccc1)c1ccccc1)N1CCCC1	·	-24%	·	·	·	-3%	0%	-13%
COC(=O)CN1C(c2cccc(Cl)c2)=Nc2ccc(Cl)cc2C1c1ccccc1 (stereo not given)	-19%	-16%	3%	?	-7.6%	-39%	-83%	-7%
COCCn1c(SCC(=O)Nc2ncc(C)s2)nc2sc3c(c2c1=O)CCC3	·	·	·	-4%	-9.9%	2%	-5%	·
